# Screening results as filed in PubChem BioAssay.
# PABP FP inh – blocks human PABP binding to poly(A) RNA. P11940. fluorescence polarization. inhibition, % at 35 µM. actives 1% (n = 290,000);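 active means 50% or more with normal probe brightness, or confirmed in later tests; inconclusive means above 50% with abnormal brightness, or retests that disagree; inactive means below 50% or failed in later tests; about a fifth of its hits are not listed in these tables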;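 further: calls also rest on retests at 20 µM and on dose response follow-up; controls were probe without protein and protein plus probe with vehicle; some compounds called inactive have numbers as strong as hits; many hits fall short of the cut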
# Target sequence (P11940 whole entry, looked up): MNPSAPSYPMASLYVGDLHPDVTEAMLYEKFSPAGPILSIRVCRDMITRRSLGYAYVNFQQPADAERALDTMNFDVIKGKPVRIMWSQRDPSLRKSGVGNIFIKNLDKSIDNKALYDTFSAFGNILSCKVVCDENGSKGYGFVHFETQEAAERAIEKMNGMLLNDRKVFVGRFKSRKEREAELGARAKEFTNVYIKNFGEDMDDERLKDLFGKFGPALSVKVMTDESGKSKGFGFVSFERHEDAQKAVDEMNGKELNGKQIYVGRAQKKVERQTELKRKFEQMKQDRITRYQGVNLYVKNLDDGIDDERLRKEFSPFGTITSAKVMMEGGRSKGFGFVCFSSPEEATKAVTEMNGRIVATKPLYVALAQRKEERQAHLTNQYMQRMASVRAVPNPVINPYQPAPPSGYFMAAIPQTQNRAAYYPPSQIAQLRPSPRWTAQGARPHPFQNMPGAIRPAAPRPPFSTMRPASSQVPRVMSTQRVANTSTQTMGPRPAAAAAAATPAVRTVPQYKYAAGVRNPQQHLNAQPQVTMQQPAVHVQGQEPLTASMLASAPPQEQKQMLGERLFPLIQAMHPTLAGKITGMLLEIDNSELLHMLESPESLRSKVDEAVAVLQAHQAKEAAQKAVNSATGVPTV
# HIV Env fusion – blocks HIV Env-driven cell-cell fusion; HeLa-JRFL Env/CEM21 cell fusion, luciferase; inhibition, % at 12.3 µM; actives 1.1% (n = 360,000); AID 651610;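 active means mean replicate inhibition score of at least 50 and every replicate individually at or above 50; inconclusive means only one of the two criteria met; inactive means mean below 50 and not all replicates reaching 50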;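 further: 0% = plate neutral controls and 100% = maraviroc near 300 nM; one replicate is shown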
# eIF4H inh – inhibitors of RNA binding by human eIF4H; eIF4H fluorescence polarization binding assay; inhibition, % at 35 µM; actives 0.94% (n = 290,000); AID 2012;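 active means 50% or more with normal probe brightness, or confirmed in later tests; inconclusive means above 50% with abnormal brightness, or retests that disagree; inactive means below 50% or failed in later tests; about a fifth of its hits are not listed in these tables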;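 further: calls also rest on retests at 20 µM and on dose response follow-up; 0% = protein and probe with vehicle and 100% = probe without protein; strong numbers were not always called active; many hits fall short of the cut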
# CSC inhib – blocks cancer stem cells; cancer stem cell-like cells viability, luminescence; inhibition, % at 7.5 µM; actives 1.1% (n = 300,000); AID 2717;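 active means mean at 75% or more and at least half the replicates too; inconclusive means mean and replicates disagree; tested in HMLE shEcad cells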;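 further: 0% = median of negative and 100% = median of positive control wells; the first replicate is given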
# Yeast UUG start – yeast start codon fidelity modulation; actives 0.13% (n = 350,000); activity score, % at 18.7 µM; S. cerevisiae UUG-firefly luciferase reporter, luminescence/redox ratio;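 active means replicate mean at a twofold rise or more, about +100% in these data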;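 further: firefly luciferase made from a UUG start codon reports start codon fidelity; reporter light over untreated wells divided by growth signal over untreated wells; some hits fall short of that in this replicate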
# Rce1 inh – inhibitors of yeast Ras-converting enzyme. calls only. actives 0.27% (n = 290,000). Q03530. yeast membranes, quenched prenylated peptide cleavage fluorescence;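 active means fall in fluorescence gain of 50% or more versus controls, with final raw signal at or below 3038400; inconclusive means same 50% fall but final raw signal above 3038400; inactive means fall in fluorescence gain under 50%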;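 further: plate controls were neutral control wells for no effect and wells lacking membranes for full effect; tested at 10 µM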
# Target sequence (Q03530 whole entry, looked up): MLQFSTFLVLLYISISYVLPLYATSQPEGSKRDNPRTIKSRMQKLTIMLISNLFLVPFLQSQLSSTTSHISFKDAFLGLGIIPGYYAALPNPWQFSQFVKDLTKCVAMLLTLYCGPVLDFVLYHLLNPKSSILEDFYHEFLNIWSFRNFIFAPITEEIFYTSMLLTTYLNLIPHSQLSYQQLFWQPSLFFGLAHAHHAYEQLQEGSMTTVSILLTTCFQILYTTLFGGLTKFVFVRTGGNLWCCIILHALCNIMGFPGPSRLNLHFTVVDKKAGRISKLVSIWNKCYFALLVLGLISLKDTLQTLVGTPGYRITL
# MT1-MMP act inh – MT1-MMP (human) activation inhibition; HT1080 RFP-PRO-GFP cells, GFP/RFP ratio fluorescence, overnight; percent of plate control window, DMSO zero; actives 0.061% (n = 360,000); AID 651647; P50281; GFP/RFP ratio change, % at 20 µM;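 active means GFP/RFP ratio change of at least 30% with cell ATP level not reduced by more than half and red fluorescence within 50% of control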; further: strong numbers were not always called active
#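 Assay system: HT1080 cells carrying an RFP-PRO-GFP reporter | Dosing: Single dose of 20 µM compound, 1% DMSO final | Incubation: Cells overnight before dosing, compound overnight, 37 °C, 5% CO2 | Evaluation: GFP/RFP fluorescence ratio | Control set: DMSO and RFP-L50D-GFP cell wells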
# eIF4H inh retest – second read-out of eIF4H inh, no call of its own (marks repeat the call); inhibition, %; compound at 20 µM; confirmation average;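 mean of two retest wells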
# PABP FP inh retest – further read-out of PABP FP inh, marked with its call; inhibition, %; compound at 20 µM; confirmation repeats;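 mean of two retest wells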
# MT1-MMP act inh RFP – further read-out of MT1-MMP act inh, marked with its call; RFP signal change, %; measured here: RFP expression control read;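 0 = vehicle wells; hits needed this value within 50% of zero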
# An asterisk follows results filed as active; i = inactive; ? = inconclusive; nt = no result given. A portion of the library, so the mix of outcomes need not match the whole.
SMILES,PABP FP inh,HIV Env fusion,eIF4H inh,CSC inhib,Yeast UUG start,Rce1 inh,MT1-MMP act inh,MT1-MMP act inh RFP,others
COC(=O)c1ccc2c(=O)[nH]c(COC(=O)c3cccc(S(=O)(=O)N4CCOCC4)c3)nc2c1,nt,1,nt,-8,1,i,3,4,
Cc1nnc(NC(=O)c2ccc3c(c2)C(=O)N(CC2CCCO2)C3=O)s1 (centres undefined),0,nt,-3,-2,-18,i,1,3,
COc1ccc(-c2ccc(SCC(=O)NCc3ccco3)nn2)cc1,-2,-78,1,-17,-21,i,-1,1,
CCOC(=O)c1c(C2CC2)csc1NC(=O)COC(=O)c1cnc(Cl)c(Cl)c1,8,8,-7,17,nt,i,4,3,
O=C(COc1ccc(Cl)cc1)NCCCNC(=O)c1ccccn1,9,13,-10,2,2,i,1,1,
O=C(CC12CC3CC(CC(C3)C1)C2)NCO,-8,nt,-6,-10,-15,i,-3,5,
CCOC(=O)c1csc(COc2ccccc2Cl)n1,10,6,9,1,nt,i,1,-1,
CCc1cccc(NC2c3ccccc3C(=O)N2c2ccc(C)cn2)c1 (centres undefined),-7,-37,0,21,-2,i,-3,-8,
COC(=O)c1ccccc1S(=O)(=O)N(CCCO)Cc1cc2c(C)ccc(C)c2[nH]c1=O,-7,nt,3,nt,nt,i,-4,-6,
CNC(=O)c1ccc(Nc2nc(-c3ccccc3)nc3ccccc23)cc1,4,-19,-7,40,-13,i,2,-2,
COc1ccc(Cn2c(=O)oc3ccccc32)cc1F,0,-18,-10,-1,5,i,1,3,
COc1cc(NC(C)CCCN)c2ncccc2c1Oc1ccccc1 (centres undefined),-3,15,52,-8,nt,i,-4,1,eIF4H inh retest=-12;PABP FP inh retest=3
CSc1ccc(C(=O)N2CCC(n3nccc3NC(=O)C3CC3)CC2)cc1,1,3,-6,-15,2,i,2,3,
Cc1cc(Nc2cccc(Cl)c2C)n2ncnc2n1,13,-15,2,10,-18,i,5,1,
Cc1cccc(C)c1NC(=O)CS(=O)CC(=O)NC1CCN(Cc2ccccc2)CC1 (centres undefined),-6,8,-4,5,nt,i,-1,-3,
Cc1ccc(-c2nc(NC(=O)CSc3nnc(C)s3)ns2)cc1,-7,14,-8,-10,-21,i,-1,3,
O=C(c1ccc(S(=O)(=O)N2CCCC2)cc1)N(Cc1ccco1)C1CCS(=O)(=O)C1 (centres undefined),0,-5,1,-1,nt,i,-8,3,
COc1ccc(C(=O)N/N=C/C(Br)=C/c2ccccc2)cc1,35,-37,-11,32,nt,i,-4,0,
CCSc1ccccc1C(=O)Nc1cc(C)on1,-1,-17,5,-1,-25,i,-1,2,
CCN(C(=O)C1CCCN(c2ncnc3c2nc2n3CCCCC2)C1)c1cccc(Cl)c1 (centres undefined),-6,10,11,11,11,i,1,-13,
COc1ccc(NC(=O)CSc2nnc(-c3ccncc3)n2C)cc1,-1,14,-2,2,nt,i,-1,1,
CCOC(=O)C1CCCN(C2CC(=O)N(c3cccc(C(F)(F)F)c3)C2=O)C1 (centres undefined),-1,-22,-4,10,-18,i,2,1,
C=CCn1c(NCc2ccc(OC)cc2O)nc2ccccc21,8,-22,-7,2,-9,i,0,-6,
Cc1ccc(S(=O)(=O)N2CCN(S(=O)(=O)N3CCCCCC3)CC2)cc1,4,-4,0,-4,nt,i,-2,-1,

# A run of entries from further up:
SMILES,PABP FP inh,HIV Env fusion,eIF4H inh,CSC inhib,Yeast UUG start,Rce1 inh,MT1-MMP act inh,MT1-MMP act inh RFP,others
COc1cc(NC(C)CCCN)c2ncccc2c1Oc1ccccc1 (centres undefined),-3,15,52,-8,nt,i,-4,1,eIF4H inh retest=-12;PABP FP inh retest=3
CSc1ccc(C(=O)N2CCC(n3nccc3NC(=O)C3CC3)CC2)cc1,1,3,-6,-15,2,i,2,3,
Cc1cc(Nc2cccc(Cl)c2C)n2ncnc2n1,13,-15,2,10,-18,i,5,1,
Cc1cccc(C)c1NC(=O)CS(=O)CC(=O)NC1CCN(Cc2ccccc2)CC1 (centres undefined),-6,8,-4,5,nt,i,-1,-3,
Cc1ccc(-c2nc(NC(=O)CSc3nnc(C)s3)ns2)cc1,-7,14,-8,-10,-21,i,-1,3,
O=C(c1ccc(S(=O)(=O)N2CCCC2)cc1)N(Cc1ccco1)C1CCS(=O)(=O)C1 (centres undefined),0,-5,1,-1,nt,i,-8,3,
COc1ccc(C(=O)N/N=C/C(Br)=C/c2ccccc2)cc1,35,-37,-11,32,nt,i,-4,0,
CCSc1ccccc1C(=O)Nc1cc(C)on1,-1,-17,5,-1,-25,i,-1,2,
CCN(C(=O)C1CCCN(c2ncnc3c2nc2n3CCCCC2)C1)c1cccc(Cl)c1 (centres undefined),-6,10,11,11,11,i,1,-13,
COc1ccc(NC(=O)CSc2nnc(-c3ccncc3)n2C)cc1,-1,14,-2,2,nt,i,-1,1,

# Continued.
SMILES,PABP FP inh,HIV Env fusion,eIF4H inh,CSC inhib,Yeast UUG start,Rce1 inh,MT1-MMP act inh,MT1-MMP act inh RFP,others
N#CCC(=O)Nc1ccc(C(=O)Nc2cccc(S(N)(=O)=O)c2)cc1,1,7,-2,-16,-7,i,-3,3,
Cc1nn(CC#N)c(=O)n1-c1ccc(Cl)cc1,-8,12,0,-3,nt,i,-1,-2,
Cc1ccc(NC(=O)c2cc(S(=O)(=O)N(C)C)ccc2N2CCCC2)cc1S(=O)(=O)N(C)C,nt,nt,nt,9,nt,i,0,-6,
Cc1cc(C(=O)CC#N)c(C)n1CC(F)(F)F,7,nt,13,-6,0,i,-2,2,
CC1CN(C(=O)N2c3ccccc3Sc3ccccc32)CC(C)O1 (centres undefined),4,33,-4,9,-11,i,0,-6,
O=C(NCc1ccco1)c1c(F)c(F)c(F)c(C(=O)NCc2ccco2)c1F,4,7,12,-6,-17,i,-6,1,
Cc1ccc(C)c(OCC(=O)NNC(=O)CSC(=S)N2CCCC2)c1,nt,0,nt,-5,nt,i,-2,5,
Clc1ccccc1-c1nn2c(Cn3cnc4ccccc43)nnc2s1,6,19,2,1,-13,i,3,4,
COc1ccc(C2OC(CCc3ccccc3)CC3=C2C(=O)OC(C)(C)O3)cc1 (centres undefined),nt,-44,nt,nt,-15,nt,-3,-5,
COc1cccc(-c2nc(N3CCCC3)c3ccccc3n2)c1O,17,14,0,11,-10,i,3,-6,
Cc1ccc(Cl)cc1N1CCN(C(=O)Cc2csc(Nc3nc(=S)[nH]c4ccccc34)n2)CC1,-5,-5,8,10,nt,i,-1,2,
COc1ccc(CNc2cc(C)nc3ccc(OC)cc23)cc1,-5,-1,-21,-5,-19,i,3,-1,
CCN(CC)c1ccc(/C=C(\C#N)C(=O)c2ccc(Br)cc2)cc1,-14,6,?,51,nt,i,-6,64,
COc1ccc(S(=O)(=O)NCC(c2ccc3c(c2)OCO3)N2CCOCC2)cc1 (centres undefined),nt,2,nt,8,-8,i,1,0,
O=C(Nc1ccc(Cl)cc1)N1CCC(c2nc(-c3cccs3)no2)CC1,-1,27,9,10,-12,i,7,-1,
CC(SCc1ccccc1)C(=O)Nc1ccccc1F (centres undefined),-3,-15,2,-15,12,i,2,-6,
O=C(CCN1C(=O)CSc2ccccc21)Nc1cccc(C(F)(F)F)c1,nt,-23,nt,-5,7,nt,3,-1,
CN(C(=O)Cn1cc(C(F)(F)F)ccc1=O)c1c(N)n(Cc2ccccc2)c(=O)[nH]c1=O,15,12,15,-17,-14,i,-3,0,
C=C(C)CN(CC)C(=O)CSc1nc(O)cc(=O)n1C1CCCC1,5,-11,-6,-15,nt,i,-4,3,
Cc1ccc(F)cc1C(=O)N1CCCC(c2cc(C(=O)NCc3ccc(F)cc3)no2)C1 (centres undefined),nt,14,nt,nt,-9,nt,-3,-18,
Cc1cc(N=Nc2ccc3ccccc3c2)ccc1O,-1,-325,3,112*,-48,i,2,0,
CC(=O)N/C(=C\c1ccccc1)C(=O)OC(C)C(=O)Nc1ccccc1F (centres undefined),nt,nt,nt,9,-6,nt,-2,-1,
CCOC(=O)c1cc2c(nc1C)-c1cc(Cl)cc(Cl)c1OC2O (centres undefined),-9,-28,0,-1,-6,i,1,0,
CCCNc1nc2c(c(=O)[nH]c(=O)n2C)n1Cc1ccc(F)cc1,0,-8,-6,-2,-10,i,-3,4,
CC1(C(=O)O)Cc2ccccc2C(=O)O1 (centres undefined),11,-10,5,nt,nt,i,0,1,
NC(=O)c1cc([N+](=O)[O-])ccc1NCCc1ccccc1,-4,7,-7,-4,-7,i,3,1,
O=C1CC(c2ccc(F)cc2)Cc2nc(NCC3CCCO3)ncc21 (centres undefined),7,-41,-1,-15,2,i,-2,-4,
O=C(NCc1ccc2c(c1)OCO2)c1cc(=O)[nH]c2ccccc12,2,3,-6,-9,-15,i,-2,-1,
Cc1ccc(S(=O)(=O)N2CCCCC2)cc1C(=O)NCCN1CCOCC1,nt,-5,nt,nt,-7,nt,-1,2,
CCn1cc(C2=NOC(C(=O)Nc3c(C)nn(Cc4ccc(F)cc4)c3C)C2)c(C)n1 (centres undefined),2,16,-2,nt,-9,i,1,-11,
C/C(=N\NC(=O)CNC(=O)c1ccco1)c1ccc(Br)cc1,17,4,0,nt,-18,i,-1,-2,
CCCc1cc(=O)c2ccc(OC/C(C)=N/O)cc2o1,10,-12,9,1,nt,i,1,-2,
Nc1ccc2oc3ncccc3c(=O)c2c1,7,nt,0,-6,3,i,8,-4,
COc1cc(Cc2nc3ccc(S(=O)(=O)N4CCOCC4)cc3[nH]2)cc(OC)c1OC,-6,nt,-6,-6,-20,i,4,-2,
CCN(CC)CCCn1c(=S)[nH]c2ccc(Cl)cc2c1=O,-8,-23,-3,nt,-23,i,-5,2,
Cc1cc(C)n2nc(SCc3nnc(SCCCCl)o3)nc2n1,-6,nt,-3,-4,nt,i,5,-2,
COC(=O)Nc1ccc(N2CCOCC2)c(S(=O)(=O)N2CCOCC2)c1,8,15,-1,2,2,i,-2,5,
CC1CN(C(=O)CSc2ncnc3sccc23)CC(C)O1 (centres undefined),20,35,-2,-10,-12,i,7,7,
CC(=O)c1c(NCCc2ccccc2)cc(C)oc1=O,1,nt,6,-4,-9,i,2,0,
COc1ccc(C(=O)N/N=C/c2cn[nH]c2-c2ccc(OC)cc2OC)cc1,-1,nt,9,0,-20,i,-4,0,
Nn1c(Nc2ccccc2)nc2sc3c(c2c1=O)CCCC3,-15,13,-5,36,nt,i,2,4,
COc1ccccc1CNC(=O)CSc1ccccc1,8,-3,6,nt,nt,i,1,1,
CN1CCN(C(=O)c2ccc(-c3ccccc3)cc2)CC1,12,-11,-14,-4,-16,i,-3,1,
CNC(=O)Nc1ccc(Cl)cc1,-10,-44,5,0,-2,i,0,-2,
CC[C@H]1C(Nc2ccccc2)C[C@@H]2CCN3C(=O)CC[C@H]1[C@H]23 (some centres undefined),nt,0,nt,nt,4,nt,-3,1,
Cc1nn(-c2cccc(C(F)(F)F)c2)c(Cl)c1/C=N/Nc1cccc(C(=O)O)c1,-4,-204,-1,25,nt,i,3,-3,
O=C(Cn1cnc2c(NCc3ccccc3)ncnc21)N1CCN(c2ccccn2)CC1,nt,20,nt,nt,-18,nt,5,3,
